D2 agonist = Beta-Arrestin HTS for Positive Allosteric Modulators of the Human D2 Dopamine Receptor: Agonists; D(2) dopamine receptor (Homo sapiens), P14416; DiscoveRx PathHunter D2 beta-arrestin, luminescence, 90 min; 100% = 57 uM dopamine signal; activation, % (no concentration beside the values); 360,000 compounds, 0.084% hits; AID 624465, 2012; in the data active = activation above about 40%; inconclusive = about 15% to 40%; inactive = below about 15%; further: compound concentration not given in the record; the text of the record calls up to 30% inactive
Target sequence (P14416 whole entry, looked up): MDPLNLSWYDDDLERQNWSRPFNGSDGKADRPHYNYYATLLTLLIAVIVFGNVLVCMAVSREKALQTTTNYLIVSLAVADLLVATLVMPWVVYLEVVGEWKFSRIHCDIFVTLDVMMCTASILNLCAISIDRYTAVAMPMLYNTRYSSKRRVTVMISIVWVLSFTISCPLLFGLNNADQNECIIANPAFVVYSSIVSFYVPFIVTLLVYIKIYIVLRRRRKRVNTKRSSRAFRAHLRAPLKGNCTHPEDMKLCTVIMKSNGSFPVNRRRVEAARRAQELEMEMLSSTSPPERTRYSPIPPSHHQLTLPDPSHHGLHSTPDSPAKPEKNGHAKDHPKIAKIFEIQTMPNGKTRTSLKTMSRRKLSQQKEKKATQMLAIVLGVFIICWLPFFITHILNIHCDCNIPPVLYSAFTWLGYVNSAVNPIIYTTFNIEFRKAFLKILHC
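Agonist mode: compounds alone added to overnight-plated D2 PathHunter cells for 90 min at 37 C, with 57 uM final dopamine (EC100) defining full response. Beta-arrestin recruitment detected by chemiluminescent reagent, read after 1 h at ambient temperature.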
TRPML1 blocker = qHTS for Inhibitors of the Human Mucolipin Transient Receptor Potential 1 (TRPML1). Mucolipin-1 (Homo sapiens), Q9GZU1. TRPML1-inducible cells, Ca2+ dye fluorescence, FDSS; active compounds read low; inhibition of EC80 agonist-evoked calcium signal. activity change, negative = inhibition, % (concentration not given with the values). 390,000 compounds, 0.02% hits. AID 624415, 2012; in the data active means activity change below about -50%; inconclusive means about -30% to -50%; inactive means above about -30%;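 further: stimulus is agonist 54-4 at its EC80 concentration; on the % scale 0 is the no-effect control and ±100 the full control effect; the text of the record puts the active cut at -80%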
Target sequence (Q9GZU1 whole entry, looked up): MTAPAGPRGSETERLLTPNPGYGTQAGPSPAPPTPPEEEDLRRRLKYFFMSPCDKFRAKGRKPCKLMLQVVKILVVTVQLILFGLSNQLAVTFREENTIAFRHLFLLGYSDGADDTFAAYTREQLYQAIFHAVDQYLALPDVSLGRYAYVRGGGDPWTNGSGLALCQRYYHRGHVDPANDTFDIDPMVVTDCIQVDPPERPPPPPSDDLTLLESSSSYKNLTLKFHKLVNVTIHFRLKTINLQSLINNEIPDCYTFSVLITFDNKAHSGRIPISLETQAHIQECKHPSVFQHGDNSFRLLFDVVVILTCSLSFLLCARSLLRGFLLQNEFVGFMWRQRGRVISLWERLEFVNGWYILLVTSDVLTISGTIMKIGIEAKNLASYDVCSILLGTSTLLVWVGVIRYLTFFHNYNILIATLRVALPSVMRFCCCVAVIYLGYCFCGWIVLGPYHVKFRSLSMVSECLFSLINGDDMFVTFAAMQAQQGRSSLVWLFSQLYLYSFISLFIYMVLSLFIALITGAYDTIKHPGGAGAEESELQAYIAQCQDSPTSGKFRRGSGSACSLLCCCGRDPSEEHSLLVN
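TRPML1-DL cells, Tet-induced overnight (~16 h, 37 °C) at 1,500 cells/well, were loaded with Ca8 no-wash dye plus quencher for 45-90 min at room temperature. Compounds were pinned during FDSS kinetic reading; agonist 54-4 at EC80 (4 uM final) then added.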
PINK1 modulator = A Quantitative High throughput Screen to Identify Chemical Modulators of PINK1 Expression; AID 624263, 2012; PINK1 immunofluorescence, high-content cytometry, 24 h; 410,000 compounds, 0.2% hits; Potency, µM (titrated, usually from 76.6 µM), without a hit: at the highest dose activation (PINK1 increase), usual class: activators; active = well fitted activation curve with a large enough effect; inconclusive = small, poorly fitted or top-dose-only effect; inactive = flat fitted curve, though single readings scatter; cell line not stated here;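 further: potency means the concentration at half of the fitted maximal effect; % of control where 0% means no effect; nearly all actives have a fitted effect of over 65% in size; a mitochondrial uncoupler was the plate control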
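Fluorescence from anti-PINK1 antibody, together with nuclear and cell stains, was scanned on a laser-scanning cytometer. Before staining, stable-line cells were incubated 24 hours with compounds at 5 concentrations; primary antibody 12 h at 10 degrees C.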
TRPML1 ag = qHTS for Agonists of the Human Mucolipin Transient Receptor Potential 1 (TRPML1). TRPML1-expressing cells, Ca2+ dye fluorescence, FDSS; host cell line not named in the record; reference of the full effect not given here. activation, % (test concentration not listed). 410,000 compounds, 0.12% hits. AID 624414, 2012; in the data active = activation above about 50%; inconclusive = about 30% to 50%; inactive = below about 30%; further: 0% is about no effect; the text of the record puts the active cut at 80%
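Tet-induced TRPML1-DL cells, 1,500 per well, cultured overnight, were loaded with a no-wash Ca2+ dye for 45–90 min. Calcium fluorescence was recorded on the FDSS for 110 s after compound addition, before the EC80 agonist (4 uM 54-4) was added.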
Six1-Eya2 blk = qHTS Assay for Inhibitors of the Six1/Eya2 Interaction; AID 651725, 2012; activity change, % (concentration not given with the values); 360,000 compounds, 0.56% hits; Homeobox protein SIX1 (Homo sapiens) + Protein phosphatase EYA2 (Homo sapiens), …; AlphaScreen GST-Six1/His-Eya2 binding, biochemical; active compounds read low; control for the full effect not named in the record; in the data active = activity change below about -65%; inconclusive = about -30% to -65%; inactive = above about -30%; further: on the % scale 0 is the no-effect control and ±100 the full control effect
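Homogeneous AlphaScreen proximity assay pairing GST-Six1 with His-tagged Eya2 (added as 5X mix: 250 nM and 500 nM) in 50 mM Tris pH 8.0, 300 mM NaCl, 1 mM TCEP. Glutathione donor and nickel acceptor beads; 1 h, 37 °C, dark.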
D2 potentiator = Beta-Arrestin HTS for Positive Allosteric Modulators of the Human D2 Dopamine Receptor: Potentiators | 360,000 compounds, 0.23% hits | potentiation, % (concentration not given with the values) | D(2) dopamine receptor (Homo sapiens), P14416 | DiscoveRx D2 beta-arrestin cells, luminescence, 90 min; 100% = 57 uM dopamine signal; active = potentiation of 50% or more; inconclusive = 30% to 50%; inactive = 30% or less;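 further: tested on top of an EC20 dose of dopamine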
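D2 cells co-treated with compound plus 50 nM dopamine (EC20) for 90 min at 37 deg C to detect potentiation. Beta-arrestin recruitment was read as enzyme-fragment luminescence after 1 h at ambient temperature. Full response was set by 57 uM dopamine.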
An asterisk follows results filed as active; ? = inconclusive; . = no result given; & = joins results of further samples; [ ] = dose if it differs, or a comment.

The line under a structure holds: D2 agonist	TRPML1 blocker	PINK1 modulator	TRPML1 ag	Six1-Eya2 blk	D2 potentiator
- O=C(COC(=O)C12CC3CC(CC(C3)C1)C2)N1CCN(S(=O)(=O)c2ccccc2)CC1
→ -3.3	38	-1.1%	1.8	2	1
- CCc1nc2sc3c(O)cc(=O)[nH]c3c2cc1C
→ 1.2	-1	1.3%	-0.2	2	0
- CCN(c1ccccc1)c1nc2ccsc2c(=O)s1
→ 1.7	5	0.6%	7.0	61	0
- COc1ccccc1N1CCN(/N=C(\C)c2ccccc2O)CC1
→ 0.9	-3	1.5%	-1.0	-6	-7
- Cc1ccc(C(=O)NS(=O)(=O)c2ccc(N=NN(C)C)cc2)cc1
→ 6.6	6	3.7%	-0.1	8	-6
- CCOc1ccc(C(C)NC(=O)c2cccc(F)c2)cc1 (stereo unspecified)
→ 0.2	12	-1.6%	1.4	9	-14
- O=C(Nc1nc(-c2ccco2)cs1)c1ccccc1
→ -0.3	-8	1.3%	0.7	-15	-13
- CCCCNS(=O)(=O)c1ccc2nc(-c3cccnc3)cc(C(=O)NCCOC)c2c1
→ -1.2	0&-5	0.8%&-0.3%	0.3&-0.5	-4	-14
- CC(CN1CCOCC1)OC(=O)c1cccc(Cl)c1 (stereo unspecified)
→ -0.6	-4	0.1%	-0.6	-1	-33
- CC(C)c1ccccc1NC(=S)NC(C)c1ccccc1 (stereo unspecified)
→ -2.5	30	3.9%	3.4	-2	-8
- CCc1ccccc1N1CC(c2nc3ccccc3n2Cc2cccc(C)c2)CC1=O (stereo unspecified)
→ .	47	2.0%	-0.6	.	.
- CSc1ccc(CN(C)C(C)C(=O)NCC2CCCCC2)cc1 (stereo unspecified)
→ -4.1	19	4.7%	2.3	-11	-4
- NCCc1nnc(SCc2ccccc2)o1
→ -1.6	10	-3.0%[38.3 µM]	-0.8	-2	-6
- CC1=C(N2CCOCC2)CCC1=O
→ -2.6	1	1.2%	-0.5	1	-4
- COc1ccc(S(=O)(=O)Nc2ccc(Oc3ccsc3C(=O)O)cc2)cc1
→ -2.3	-12	2.1%	1.7	2	-7

(more compounds)
The line under a structure holds: D2 agonist	TRPML1 blocker	PINK1 modulator	TRPML1 ag	Six1-Eya2 blk	D2 potentiator
- CC(=O)Nc1ccccc1-c1nc2ccccc2n(CC(=O)c2ccc(C)c(C)c2)c1=O
→ .	-7	0.6%	-0.3	.	.
- Cc1cccc(/C=N/NC(=O)c2cc(C)nc3ccccc23)n1
→ 4.0	-17	3.1%	-0.2	0	5
- CCCCCCCCC/C(=N\O)c1ccccn1
→ -4.7	18	5.2%	0.4	2	4
- COc1ccc(CCNC(=O)Cn2nc(C(=O)O)c3ccccc3c2=O)cc1OC
→ 0.7	-3	0.3%	0.2	-3	-11
- Cc1nc([N+](=O)[O-])c(C(=O)OCc2ccccc2C#N)n1C
→ -1.5	-2	0.5%	-0.4	1	-4
- CC1(C)ON(C2CCCCC2)[C@H]2c3nc4ccccc4n3C[C@H]21
→ -0.2	-11	0.6%	-0.5	-5	0
- Cc1noc(NS(=O)(=O)c2ccc(NC(=O)/C=C/c3ccc(Br)cc3)cc2)c1C
→ -2.0	-1	0.8%	0.4	2	6
- Cc1noc(C)c1CSc1nnc(-c2ccncc2)n1-c1cccc(Cl)c1C
→ -3.2	12	-1.1%	-0.2	-3	-12
- CCCn1c2ccccc2c2cnn(CC(=O)N3CCC(C)CC3)c(=O)c21
→ .	-1	3.3%	0.0	.	.
- COc1ccc(S(=O)(=O)Nc2ccccc2C(=O)N2CCOCC2)cc1Cl
→ -1.5	-13	-1.0%	-0.2	8	7
- Cc1ccc(C(=O)Nc2ccc3c(c2)OCCO3)cc1S(=O)(=O)N1CCOCC1
→ -0.4	-8	5.4%	0.2	-20	-26
- CC(=O)c1c(C)nc2ccc(C)cc2c1-c1ccccc1
→ -0.6	-1	0.8%	0.2	1	-3
- Cc1cc(NC(=O)CS(=O)(=O)c2cn(Cc3cccc(Br)c3)c3ccccc23)no1
→ 1.3	73	3.4%	2.4	?	-3
- Cc1cccc(C)c1NC(=O)c1cnn(-c2ccccc2)c1C
→ 5.0	0	-0.3%	-1.2	8	-1
- CCOc1ccccc1NC(=O)Cn1c(=O)n(CCC(C)C)c(=O)c2cccnc21
→ .	0	1.3%	1.2	.	.

In a second layout: eleven of the compounds above.
compound,D2 agonist,TRPML1 blocker,PINK1 modulator,TRPML1 ag,Six1-Eya2 blk,D2 potentiator
CC(=O)Nc1ccccc1-c1nc2ccccc2n(CC(=O)c2ccc(C)c(C)c2)c1=O,.,-7,0.6%,-0.3,.,.
Cc1cccc(/C=N/NC(=O)c2cc(C)nc3ccccc23)n1,4.0,-17,3.1%,-0.2,0,5
CCCCCCCCC/C(=N\O)c1ccccn1,-4.7,18,5.2%,0.4,2,4
COc1ccc(CCNC(=O)Cn2nc(C(=O)O)c3ccccc3c2=O)cc1OC,0.7,-3,0.3%,0.2,-3,-11
Cc1nc([N+](=O)[O-])c(C(=O)OCc2ccccc2C#N)n1C,-1.5,-2,0.5%,-0.4,1,-4
CC1(C)ON(C2CCCCC2)[C@H]2c3nc4ccccc4n3C[C@H]21,-0.2,-11,0.6%,-0.5,-5,0
Cc1noc(NS(=O)(=O)c2ccc(NC(=O)/C=C/c3ccc(Br)cc3)cc2)c1C,-2.0,-1,0.8%,0.4,2,6
Cc1noc(C)c1CSc1nnc(-c2ccncc2)n1-c1cccc(Cl)c1C,-3.2,12,-1.1%,-0.2,-3,-12
CCCn1c2ccccc2c2cnn(CC(=O)N3CCC(C)CC3)c(=O)c21,.,-1,3.3%,0.0,.,.
COc1ccc(S(=O)(=O)Nc2ccccc2C(=O)N2CCOCC2)cc1Cl,-1.5,-13,-1.0%,-0.2,8,7
Cc1ccc(C(=O)Nc2ccc3c(c2)OCCO3)cc1S(=O)(=O)N1CCOCC1,-0.4,-8,5.4%,0.2,-20,-26

(more compounds)
The line under a structure holds: D2 agonist	TRPML1 blocker	PINK1 modulator	TRPML1 ag	Six1-Eya2 blk	D2 potentiator
- C=CCc1c(C)nc(-c2ccccc2)nc1Nc1ccc(O)cc1
→ 5.2	-16	2.9%	-0.4	0	-9
- Cn1c(SCC(=O)Nc2nccs2)nnc1-c1cccnc1
→ -0.7	-25	3.4%	0.0	5	-2
- CC(C)NC(=O)c1onc(CSc2ccccn2)c1C(=O)NC(C)C
→ -0.5	3	2.6%	-0.4	5	1
- CCCCCCCOc1ccc(-c2ccc(C#N)cn2)cc1
→ -4.8	-6	3.8%	0.6	-1	-8
- CCOc1ccc(C(=O)Nc2ccc(-c3nnc4n3CCCCC4)cc2)cc1OCC
→ .	27	-0.4%	-0.4	.	.
- COC(=O)c1cc(-c2cccs2)nc2ccccc12
→ -4.9	4	3.6%	-1.0	23	-2
- COc1ccc(-c2cn3c(C)c(C(=O)NC(C)(C)C)sc3n2)cc1
→ -3.2	19	-0.2%	-0.6	?	0
- O=C(N/N=C/c1ccncc1)c1cc2c(ccc3ccccc32)o1
→ 4.9	28	5.1%	-0.6	-7	4
- O=C(NCC1CCN(Cc2cccc(Cl)c2)CC1)c1cc2ccc3cccnc3c2[nH]1
→ .	-1	-0.3%	-0.2	.	.
- COc1cc(C(=O)Nc2ccccc2OCc2cc(=O)n3cc(C)sc3n2)cc(OC)c1OC
→ .	-12	1.3%	-0.6	.	.
- COC(=O)c1cccc(N2C(=O)C[C@](Sc3ccc(C)cc3)(C(=O)OC)[C@H]2c2ccccc2)c1
→ .	.	-1.2%	-0.1	-6	.
- COC(=O)c1sccc1NC(=O)CN(C)NS(=O)(=O)c1ccc(F)cc1
→ -2.7	39	6.4%	-0.1	2	-14
- O=C(COC(=O)C12CC3CC(CC(C3)C1)C2)Nc1ccc2[nH]c(=O)[nH]c2c1
→ 8.5	12	0.7%	0.2	11	-2
- CCOc1cc(-c2cc(C(=O)O)c3c(-c4ccccc4)[nH]nc3n2)ccc1O
→ .	-5	0.3%	0.2	.	.
- O=C(Nc1ccc2nc(C3CC3)n(Cc3ccc(F)cc3)c(=O)c2c1)c1ccco1
→ -2.8	3	1.9%	1.3	-13	-11

Carrying on.
The line under a structure holds: D2 agonist	TRPML1 blocker	PINK1 modulator	TRPML1 ag	Six1-Eya2 blk	D2 potentiator
- CC(C)CC(=O)Nc1nc2ccc(S(=O)(=O)N3CCOCC3)cc2s1
→ -0.6	-8	7.8%	0.2	-2	-1
- C#CCOCCOCCOCCNc1nc(N2CCN(C(=O)[C@H](CCCCN)n3cc([C@@H](N)CC(C)C)nn3)CC2)nc(N2CCN(C(=O)[C@H](Cc3cc4ccccc4[nH]3)n3cc([C@@H](N)Cc4ccc(O)cc4)nn3)CC2)n1
→ -2.9	16	0.8%	0.2	-12	-17
- O=C(CCC(=O)NC1CCCCCC1)Nc1nnc(C(F)(F)F)s1
→ -2.2	0	2.3%[38.3 µM]	0.3	0	-5
- COc1ccc(C)cc1NC(=O)c1ccccc1NS(=O)(=O)c1ccc(Cl)s1
→ -3.5	2	?	-0.7	-5	-17
- O=C(N/N=C/c1ccccn1)c1cccc(NC(=O)c2ccccc2Cl)c1
→ -2.8	-5	1.2%	-0.5	-22	0
- CCNC(=O)/N=C1/NC(=O)C(C(C)C)O1 (stereo unspecified)
→ -2.7	11	0.8%	-0.5	0	-7
- COc1ccccc1N1CCN(C(c2ccccc2)c2nnnn2CCc2ccccc2)CC1 (stereo unspecified)
→ -3.4	-11	1.9%	7.0	-14	-11
- CN1OC[C@@H]2CN[C@H](c3cccc(-c4cc(Cl)cc(Cl)c4)c3)C[C@@H]21
→ 0.8	3	1.3%	1.8	-5	-13
- O=C(Nc1ccc(C(=O)NCc2ccccc2)cc1)C1=CSCCO1
→ 3.1	39	3.9%	1.0	-3	-4
- Cc1ccc(C(=O)N2CCC(C(=O)c3ccc(F)cc3)CC2)cc1
→ -2.4	-15	-1.7%	0.0	14	-20
- COc1cc(/C=C/C(=O)c2ccc(O)cc2)ccc1OCC#N
→ -1.3	-16	-1.5%	4.8	2	-5
- Cc1cccc(C(C)C)c1-n1nnnc1-c1ccccc1
→ -2.0	21	-2.4%[38.3 µM]	-0.4	8	-6
- CN(C)c1nc(OCCNC(=O)Nc2ccccc2)nc(N(C)C)n1
→ -5.2	0	-1.5%	-1.6	-5	-5
- O=C(CCC(=O)N1CCSc2ccccc21)Nc1ccc(Cl)cc1
→ .	0	3.6%	0.2	.	.
- NC(=O)c1ncn([C@@H]2O[C@H](CNCc3cnc(N4CCOCC4)nc3)[C@@H](O)[C@H]2O)n1
→ -2.1	12	0.2%	-0.6	4	-2
